Source: PubChem
Six1-Eya2 blk – Six1/Eya2 interaction inhibition | Q15475+O00167 | 0.56% of 360,000 active | AID 651725 | activity change, % (test concentration not listed) | AlphaScreen GST-Six1/His-Eya2 binding, biochemical; active compounds read low; control for the full effect not named in the record; in the data active = activity change below about -65%; inconclusive = about -30% to -65%; inactive = above about -30%; also: % is scaled to controls: 0 for no effect and ±100 for the full control effect
Target sequence (O00167 whole entry, looked up): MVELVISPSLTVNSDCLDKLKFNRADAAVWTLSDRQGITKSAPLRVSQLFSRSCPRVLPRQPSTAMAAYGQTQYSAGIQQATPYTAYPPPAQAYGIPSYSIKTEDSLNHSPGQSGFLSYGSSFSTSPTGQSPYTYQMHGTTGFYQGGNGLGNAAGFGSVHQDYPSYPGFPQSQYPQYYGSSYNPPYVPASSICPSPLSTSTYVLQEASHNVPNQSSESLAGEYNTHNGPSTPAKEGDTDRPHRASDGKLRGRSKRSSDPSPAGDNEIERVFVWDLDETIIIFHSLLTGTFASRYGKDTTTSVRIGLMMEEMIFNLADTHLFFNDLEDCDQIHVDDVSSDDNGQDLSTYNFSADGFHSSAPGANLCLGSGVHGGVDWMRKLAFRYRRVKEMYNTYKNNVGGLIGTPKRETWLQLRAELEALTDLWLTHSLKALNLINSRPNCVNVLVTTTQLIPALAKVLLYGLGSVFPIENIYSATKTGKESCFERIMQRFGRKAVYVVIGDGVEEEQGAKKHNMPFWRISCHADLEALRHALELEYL
Target sequence (Q15475 whole entry, looked up): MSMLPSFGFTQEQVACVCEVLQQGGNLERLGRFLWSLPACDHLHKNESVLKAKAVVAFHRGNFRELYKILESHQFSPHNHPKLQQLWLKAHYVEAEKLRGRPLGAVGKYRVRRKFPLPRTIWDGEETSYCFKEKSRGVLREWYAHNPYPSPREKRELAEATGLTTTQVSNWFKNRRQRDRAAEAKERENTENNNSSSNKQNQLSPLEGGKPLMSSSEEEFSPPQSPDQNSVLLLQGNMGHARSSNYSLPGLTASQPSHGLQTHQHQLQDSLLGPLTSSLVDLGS
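GST-Six1 + His-Eya2 (5X stock: 250/500 nM); Tris pH 8.0, 300 mM NaCl, 0.05% BSA, 0.02% Tween 20; GSH donor/Ni acceptor beads; 1 h 37 °C dark; AlphaScreen readout.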
D2 potentiator – potentiates the human D2 dopamine receptor allosterically; P14416; DiscoveRx D2 beta-arrestin cells, luminescence, 90 min; 100% = 57 uM dopamine signal; potentiation, % (no concentration beside the values); 0.23% of 360,000 active; AID 624464; active = potentiation of 50% or more; inconclusive = 30% to 50%; inactive = 30% or less;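 also: compound concentration not given in the record; tested on top of an EC20 dose of dopamine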
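PathHunter beta-arrestin assay in DiscoveRx D2 cells. Compounds were added with an EC20 of dopamine (50 nM final) for 90 min at 37 deg C. Luminescence was read 1 h after detection reagent, with 57 uM dopamine as the EC100 control.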
D2 agonist – agonists of human D2 dopamine receptor (beta-arrestin); P14416; DiscoveRx PathHunter D2 beta-arrestin, luminescence, 90 min; 100% = 57 uM dopamine signal; activation, % (concentration not given with the values); 0.084% of 360,000 active; AID 624465; in the data active = activation above about 40%; inconclusive = about 15% to 40%; inactive = below about 15%; also: compound concentration not given in the record; the text of the record calls up to 30% inactive
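DiscoveRx PathHunter D2 beta-arrestin cells (2,100/well) attached overnight, then compound-stimulated 90 min at 37 C in HBSS/10 mM HEPES/0.1% Tween-20 buffer; beta-galactosidase complementation read by luminescence after 1 h at ambient temperature. Dopamine 57 uM final (EC100) as control.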
gsp agonist – activates gsp, the McCune-Albright syndrome mutation; AID 624287; gsp mutant cells, cAMP HTRF, 30 min; control for the full effect not named in the record; Potency, µM (titrated, usually from 76.9 µM), for the others: at the top dose activation (cAMP increase), usual class: activators; 0.13% of 340,000 active; active = well fitted activation curve with a large enough effect; inconclusive = small, poorly fitted or top-dose-only effect, or another doubt; inactive = no such curve, though single readings can be large or run the other way; cell line not stated here;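 also: phosphodiesterase inhibitor Ro 20-1724 added with compounds to block cAMP breakdown; potency is read from the fitted curve at half-maximal effect; nearly all actives have a fitted effect of over 60% in size; about a fifth of the inactives were tested at one dose only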
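Cells stably selected in G418 were plated at 2000/well, grown 16-24 hr, then given compounds in DMSO with the PDE inhibitor […] (300 uM solution added) for 30 min at 37C; cAMP was read by HTRF.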
CtBP-E1A blk – blocks the CtBP interaction with E1A. activity change, % (test concentration not listed). AlphaScreen GST-E1A/His-CtBP binding, 1536-well; active compounds read low; control for the full effect not named in the record. 0.49% of 340,000 active. AID 651724; in the data active means activity change below about -65%; inconclusive means about -30% to -65%; inactive means above about -30%; also: % is scaled to controls: 0 for no effect and ±100 for the full control effect
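Homogeneous bead-based format: GST-tagged E1A captured on glutathione donor beads, His-tagged CtBP on nickel acceptor beads; compounds precede bead addition by 2 h at 37 °C.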
gsp antag – antagonists of gsp mutant (McCune-Albright syndrome) | gsp-mutant cells, cAMP HTRF, 30 min; control for the full effect not named in the record | Potency, µM (doses to about 76.9 µM), inactives show at the highest dose activity change, negative = inhibition, usual class: inhibitors | 0.4% of 340,000 active | AID 624288; active = falling curve of any shape with a large fitted effect; inconclusive = falling curve, mostly with a smaller effect; inactive = flat or rising curve; cell line not stated here;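 also: intracellular cAMP measured with PDE inhibitor Ro 20-1724 present during compound exposure; potency is read from the fitted curve at half-maximal effect; % is scaled to controls: 0 for no effect and ±100 for the full control effect; nearly all actives have a fitted effect of over 65% in size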
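Cells in G418 medium, seeded 16-24 h, 37C; buffer exchange to DPBS + 1 mM CaCl2, 0.5 mM MgCl2, 0.05% BSA; cpds in DMSO + […] (300 uM stock), 30 min 37C; HTRF cAMP detection.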
Active calls of the source: *; ? = inconclusive; . = not tested or not shown; [ ] = another dose, or the depositor's remark.

structure | Six1-Eya2 blk | D2 potentiator | D2 agonist | gsp agonist | CtBP-E1A blk | gsp antag
CCSc1nsc(NC(=O)Nc2ccccc2Cl)n1 | -1 | -3 | 0.0 | 5% | 5 | -15%
CCN(CC)Cc1ccccn1 | -9 | -15 | -1.1 | -3%[15.4 µM] | 4 | -3%
CCCCN(CC)Cc1ccc(CNC(=O)Nc2ccccc2)o1 | 0 | -12 | -0.3 | 4% | 2 | 1%
Cc1ccc(OCc2cc(C(=O)N3CCC(C(O)C(C)C)CC3)no2)cc1C (stereo not drawn) | -1 | -3 | -1.2 | -14% | 2 | ?
CCN(CC)S(=O)(=O)c1ccc(C(=O)OCC(=O)N2CCOCC2)cc1 | 0 | 5 | -6.2 | -3%[15.4 µM] | 7 | 13%
C/C(CC(=O)Nc1ccc(N(C)C)cc1)=N\NC(=O)c1ccccc1Cl | 16 | 4 | 5.4 | -43%[inhibitor] | 24 | .
COc1ccc(S(=O)(=O)NCCCN2CCOCC2)cc1F | -3 | -41 | -2.1 | 9% | 0 | 6%
Cc1ccc(-c2nc(-c3ccccn3)no2)cc1[N+](=O)[O-] | -8 | 1 | -1.8 | -16% | 1 | -3%
CCN(CC)CCC(=O)N1C/C(=C/c2ccccc2)C(=O)/C(=C\c2ccccc2)C1 | -2 | -31 | -3.8 | 19% | 1 | 2%
Cn1c(=O)c(NCCc2ccccc2)c2c3c(cccc31)C(=O)c1ccccc1-2 | 0 | -6 | 0.3 | ? | 21 | 12%
CCOC(=O)c1[nH]c(=S)[nH]c1C | -4 | -4 | -0.6 | ? | 4 | -9%
CC(C)(C)NC(=O)Cn1c(=O)oc2ccc(Cl)cc21 | 8 | -5 | -4.4 | -15% | -2 | 10%
COc1ccc(-c2nn(C)c(=O)[nH]2)cc1 | 2 | -17 | -5.3 | -30%[inhibitor] | . | 9%
NC(=O)NC(=O)CSc1nc2cc([N+](=O)[O-])ccc2n1-c1cccc(C(F)(F)F)c1 | -2 | -3 | 6.3 | -17% | -12 | -17%
CCCn1c(SCCN2C(=O)c3ccccc3C2=O)n[nH]c1=O | 1 | -1 | 0.0 | ? | 1 | 17%
CCCC1Cc2c(sc3nc(SC)nc(N)c23)CO1 (stereo not drawn) | 2 | -1 | -3.6 | -8% | -3 | 22%
CC1=C(C(=O)N(C)C)CC(CC(=O)NCCCN(C)C)C(=O)N1Cc1ccccc1 (stereo not drawn) | 0 | -1 | -6.0 | -3% | -1 | .
CSc1nnc(-c2sccc2OCc2ccccc2)n1C | -8 | -13 | 3.1 | -2% | -14 | 0%
O=C(/C=C/c1cccs1)Nc1cccc(NC(=O)/C=C/c2cccs2)n1 | 0 | -4 | -2.0 | 3% | -3 | -11%
CC(Sc1c[nH]c2ccccc12)C(=O)O (stereo not drawn) | 7 | -18 | 0.5 | ? | 7 | 0%

By substructure, the entries above containing four or more nitrogen atoms (six)
structure | Six1-Eya2 blk | D2 potentiator | D2 agonist | gsp agonist | CtBP-E1A blk | gsp antag
CCSc1nsc(NC(=O)Nc2ccccc2Cl)n1 | -1 | -3 | 0.0 | 5% | 5 | -15%
C/C(CC(=O)Nc1ccc(N(C)C)cc1)=N\NC(=O)c1ccccc1Cl | 16 | 4 | 5.4 | -43%[inhibitor] | 24 | .
Cc1ccc(-c2nc(-c3ccccn3)no2)cc1[N+](=O)[O-] | -8 | 1 | -1.8 | -16% | 1 | -3%
NC(=O)NC(=O)CSc1nc2cc([N+](=O)[O-])ccc2n1-c1cccc(C(F)(F)F)c1 | -2 | -3 | 6.3 | -17% | -12 | -17%
CCCn1c(SCCN2C(=O)c3ccccc3C2=O)n[nH]c1=O | 1 | -1 | 0.0 | ? | 1 | 17%
CC1=C(C(=O)N(C)C)CC(CC(=O)NCCCN(C)C)C(=O)N1Cc1ccccc1 (stereo not drawn) | 0 | -1 | -6.0 | -3% | -1 | .

(cont.)
structure | Six1-Eya2 blk | D2 potentiator | D2 agonist | gsp agonist | CtBP-E1A blk | gsp antag
O=C(CN1C(=O)COc2ccccc21)N1CCCc2ccccc21 | 7 | 2 | 6.3 | -11% | 8 | -10%
COC(=O)c1ccc(CON2C(=O)c3ccccc3C2=O)cc1 | 9 | -1 | -0.3 | 10% | -1 | -2%
COCCNC(=O)c1cc(-c2ccccc2C)nn1CC1CC(c2cccnc2)=NO1 (stereo not drawn) | 9 | -28 | -2.8 | 21% | -19 | -4%
Oc1ccccc1-c1nc(NC2CCCC2)c2ccccc2n1 | 2 | 7 | 0.3 | -14% | 6 | -14%
O=C(CN1C(=O)c2ccc([N+](=O)[O-])cc2C1=O)NC1CCS(=O)(=O)C1 (stereo not drawn) | -5 | 10 | 2.6 | -11%[15.4 µM] | 2 | 20%
Oc1ccc2ccccc2c1CNc1ccccn1 | -3 | -1 | -8.1 | -28% | 3 | -17%
O=C(C[C@@H]1C[C@H]2c3cc(NC(=O)Nc4ccccc4F)ccc3O[C@H]2[C@H](CO)O1)NCC(F)(F)F | -12 | -2 | -6.2 | ? | 0 | .
COCCN1CC(C(=O)N2CCC(Oc3ccccc3OC)CC2)CCC1=O (stereo not drawn) | 2 | -6 | -5.0 | 3% | 8 | 10%
COc1cccc(/C=N/n2c(C)nc3ccccc32)c1OC | -1 | -13 | -1.8 | -33%[inhibitor] | 0 | -30%
CC1=C(C(=O)Nc2ccccn2)C(c2ccccc2)n2ncnc2N1 (stereo not drawn) | 4 | -23 | -5.0 | -1% | 0 | 7%
COc1ccc(-c2noc(-c3ccc(Br)o3)n2)cc1 | 0 | -5 | -4.4 | 18%[15.4 µM] | 10 | 3%
Cc1ccc(NC2SC(=O)N(Cc3cccc(C(=O)O)c3)C2=O)c(C)c1 (stereo not drawn) | 1 | 1 | -4.7 | 4% | 5 | -51%
Cc1ccc(C(=O)CCC(=O)N2CCN(C/C=C/c3ccccc3)CC2)cc1 | -3 | -17 | -2.8 | -8% | 3 | .
O=C1C=C(c2ccc(C(=O)O)cc2)C[C@@H](c2ccc(Cl)cc2)C1 | -4 | -8 | -7.8 | . | 0 | ?
CCOc1ccc(C(=O)N2CCN(c3cnn(-c4ccccc4)c(=O)c3Cl)CC2)cc1 | -13 | -5 | -6.8 | ? | -14 | -10%
CCN(CC)c1nc(-c2ccc(C(=O)NN)cc2)nc(-c2ccc(C(=O)NN)cc2)n1 | -12 | -7 | 2.0 | -6%[15.4 µM] | -29 | -4%
O=C(Nc1cc(S(=O)(=O)Nc2ccccc2Cl)ccc1O)c1cc2c(s1)CCCC2 | 2 | -6 | -0.8 | 0% | 6 | -6%
O=C(CN1CCC(NC(=O)c2ccc(Br)cc2)CC1)NCc1cccs1 | 6 | -6 | -6.8 | -22% | . | 62%[activator]
CCc1noc(C)c1C(=O)OCC(=O)Nc1ccccc1SC | 0 | 1 | -4.1 | 8% | 7 | 15%
O=C(OCc1c(-c2ccccc2)ncc2ccccc12)N1CCOCC1 | 2 | 0 | 0.3 | . | 0 | 4%

In another format: entries from further up
O=C(CN1CCC(NC(=O)c2ccc(Br)cc2)CC1)NCc1cccs1
  Six1-Eya2 blk: 6
  D2 potentiator: -6
  D2 agonist: -6.8
  gsp agonist: -22%
  CtBP-E1A blk: .
  gsp antag: 62%[activator]
Cc1ccc(OCc2cc(C(=O)N3CCC(C(O)C(C)C)CC3)no2)cc1C (stereo not drawn)
  Six1-Eya2 blk: -1
  D2 potentiator: -3
  D2 agonist: -1.2
  gsp agonist: -14%
  CtBP-E1A blk: 2
  gsp antag: ?

(next part)
structure | Six1-Eya2 blk | D2 potentiator | D2 agonist | gsp agonist | CtBP-E1A blk | gsp antag
Cc1cc(C)cc(NS(=O)(=O)c2c(C)[nH]c(=O)[nH]c2=O)c1 | 8 | -6 | -3.5 | -5%[15.4 µM] | 9 | 14%
CCOc1ccc(NC(=O)c2[nH]c(C)c(C(C)=O)c2C)cc1 | -2 | -4 | 2.5 | -40% | . | -6%
C=CCNC(=O)c1ccc(OC)cc1OC | 10 | -21 | -2.7 | 0% | 4 | 12%
O=C(NCC(=O)N1CCCC(C(F)(F)F)C1)c1ccc(Oc2ccccc2)cc1 (stereo not drawn) | -12 | -7 | -1.1 | -7% | 7 | ?
O=S(=O)(c1ccccc1)N1c2cc(Cl)ccc2Oc2nc3ccccc3nc21 | -11 | 1 | -3.4 | -4% | -9 | -6%
O=C(Nc1cccc(-n2cnnn2)c1)c1cc2ccccc2o1 | -17 | -20 | -1.3 | ? | 1 | 6%
CCCC/C(C)=N\NC(=O)CNS(=O)(=O)c1ccc([N+](=O)[O-])cc1 | 5 | 19 | 2.1 | -18% | 4 | 5%
COc1ccc2c(-c3ccccc3)cc(N3CCOCC3)nc2c1 | 38 | -17 | -3.0 | -4% | 15 | -3%
O=C(NCc1cccs1)c1nc2ncccn2n1 | -1 | 1 | -4.5 | -8% | 3 | -4%
O=C(O)CN1C(c2ccccc2O)Nc2ccc(Br)cc2C1c1ccccc1 (stereo not drawn) | -12 | -10 | -0.4 | -5% | -4 | -1%
O=C(NCc1ccccn1)c1ccc2c(c1)N(Cc1ccccc1)CCS2 | 12 | -10 | -0.4 | -30% | -15 | -29%
CC(=O)Nc1ccc(S(=O)(=O)N2CCC(C(=O)NCCC(=O)Nc3ccccc3)CC2)cc1 | 3 | -11 | -3.9 | ? | -2 | 17%
C[C@@H]1CN([C@H](C)CO)S(=O)(=O)c2ccc(Br)cc2O[C@H]1CN(C)C(=O)C1CCCCC1 | 16 | -2 | -7.0 | 6% | 4 | .
COc1ccc(NC(=O)c2cc(-c3ccccc3Cl)no2)cc1 | 5 | -27 | 1.1 | 19% | -2 | -11%
Cc1ccccc1C(=O)NC(CC(C)C)C(=O)OCC(=O)c1c(N)n(C)c(=O)n(C)c1=O (stereo not drawn) | 1 | -14 | -4.2 | -4%[15.4 µM] | 9 | .
O=C(O)CCN1C(=O)CC(N2C(=O)/C(=C/c3ccc(Cl)cc3)SC2=S)C1=O (stereo not drawn) | -8 | -10 | -1.2 | 0% | -3 | -19%
Cc1cccc(NC(=O)COC(=O)Cc2cccs2)c1C | 12 | 2 | -2.4 | -9% | -3 | 8%
CN(c1ccccc1)S(=O)(=O)c1cccc(NC(=O)Cn2cnc3c2c(=O)n(C)c(=O)n3C)c1 | 3 | -14 | 0.4 | 12% | 3 | -10%
COCCNC(=O)C(c1ccc(C)cc1)N(CCOC)C(=O)CCC(=O)Nc1nccs1 (stereo not drawn) | -5 | -2 | 5.6 | -20% | 6 | 11%
CSc1ccc(C(=O)C2CCCN(C(=O)Cn3cnnn3)C2)cc1 (stereo not drawn) | 0 | -2 | -3.0 | 13% | 6 | -4%
O=C(Cn1nnc(-c2cccc(C(F)(F)F)c2)n1)NC(=O)NCc1ccco1 | 1 | 10 | -4.1 | 6% | 0 | 5%
